GLA inh pH 4.5: alpha-galactosidase A (human) inhibition, pH 4.5 | 230,000 tested, under 10 active | P06280 | purified enzyme, 4-MU-alpha-Gal fluorescence, pH 4.5 | AID 1467 | activity change, negative = inhibition, % at 105 µM; inconclusive = small, poorly fitted or top-dose-only inhibition, or a rising curve; inactive = flat fitted curve, though single readings scatter; no compound was filed as active;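 further: 0% = full activity with enzyme and -100% = basal without enzyme; dose as in the result columns while the protocol names 77 µM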
Target sequence (P06280 whole entry, looked up): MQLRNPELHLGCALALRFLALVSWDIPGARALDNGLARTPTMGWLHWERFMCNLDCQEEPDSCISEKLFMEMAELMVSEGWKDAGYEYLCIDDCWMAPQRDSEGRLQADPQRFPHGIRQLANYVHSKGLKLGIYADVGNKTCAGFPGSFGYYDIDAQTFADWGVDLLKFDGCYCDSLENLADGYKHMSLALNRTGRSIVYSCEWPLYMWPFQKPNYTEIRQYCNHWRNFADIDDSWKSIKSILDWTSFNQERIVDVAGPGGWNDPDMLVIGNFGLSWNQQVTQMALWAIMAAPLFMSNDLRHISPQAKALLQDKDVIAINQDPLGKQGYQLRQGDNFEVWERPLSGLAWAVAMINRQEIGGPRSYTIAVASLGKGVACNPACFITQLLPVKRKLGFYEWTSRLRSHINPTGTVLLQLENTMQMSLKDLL
miR-21 reporter: miR-21 reporter, rising signal; HeLa miR-21 FLuc reporter, luciferase, 48 h; Potency, µM (doses to about 38.3 µM), without a hit: top-dose reporter change, positive = more light; 340,000 tested, under 10 active; active = well fitted rising curve with a large enough effect; inconclusive = small, poorly fitted or top-dose-only effect; inactive = no such curve, though single readings can be large or run the other way;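 further: % of control where 0% means no effect; miR-21 action dims this reporter so a rising signal means less miR-21 action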
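Luminescence from a firefly luciferase reporter carrying a miR-21 binding site downstream, stably expressed under a CMV promoter in HeLa cells that make miR-21 endogenously, reports miRNA modulation after 48 h compound exposure up to approximately 40uM final.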
Rango-impB inh: prevents formation of the Rango-importin beta complex | Q14974 | Rango CFP/YFP FRET sensor + importin beta, 45 min | Potency, µM (highest dose often 92.2 µM), for the others: top-dose inhibition of complex formation | 0.031% of 340,000 active; active = rising FRET ratio curve, often small or poorly fitted; inconclusive = mostly compound fluorescence or quenching in the first reads; inactive = flat curves in all reads;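 further: potency means the concentration at half of the fitted maximal effect; 0% = DMSO wells and 100% = buffer wells lacking importin beta; nearly all actives have a fitted effect of over 15% in size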
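Inhibition scored from the CFP 486 nm/YFP 530 nm FRET ratio 45 min after adding 0.125 microM importin beta to 50 nM Rango biosensor preincubated 5 min with compound (room temperature, PBS with DTT, Tween-20, BSA). No-importin wells as positive control.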
Rango dissoc inh: inhibitors of RanGTP-induced Rango-importin beta complex dissociation; Biochemical FRET Rango-importin beta, RanGTP-induced dissociation; 0.071% of 340,000 active; O95149+P62826; Potency, µM (highest dose often 46.1 µM), without a hit: at the highest dose activity change, negative = inhibition; active means falling FRET ratio curve, often poorly fitted, with flat reads before Ran was added; inconclusive means other falling curves, or compound fluorescence or quenching; inactive means flat or rising ratio curve;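 further: potency means the concentration at half of the fitted maximal effect; % of control where 0% means no effect; nearly all actives have a fitted effect of over 45% in size; -100% = wells without RanGTP and RCC1; the record marks most hits as doubtful in a second field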
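Quantitative HTS using a FRET biosensor: 0.1 uM Rango, 0.25 uM importin beta, 0.6 uM Ran, 2 mM GTP, 0.2 uM RCC1 final, PBS with DTT, Tween-20 and BSA. Post-read taken 45 min after Ran addition.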
The depositor's hits bear a star; ? = inconclusive; / = no result given; & = joins results of further samples.

The first three compounds as a preview:
smiles	GLA inh pH 4.5	miR-21 reporter	Rango-impB inh	Rango dissoc inh
CCOC(=O)N1CCN(C(=O)C2CCCN(S(=O)(=O)c3ccc(OCC)cc3)C2)CC1 (configuration not stated)	/	7%	-3.2%	28%
CCc1noc(C)c1C(=O)NCCc1c[nH]c2ccccc12	/	/	0.3%	8%
O=c1c2ccccc2nc(/C=C/c2cccc([N+](=O)[O-])c2)n1CCO	-12	-4%	?	-2%

The list itself, from the start:
smiles	GLA inh pH 4.5	miR-21 reporter	Rango-impB inh	Rango dissoc inh
CCOC(=O)N1CCN(C(=O)C2CCCN(S(=O)(=O)c3ccc(OCC)cc3)C2)CC1 (configuration not stated)	/	7%	-3.2%	28%
CCc1noc(C)c1C(=O)NCCc1c[nH]c2ccccc12	/	/	0.3%	8%
O=c1c2ccccc2nc(/C=C/c2cccc([N+](=O)[O-])c2)n1CCO	-12	-4%	?	-2%
COc1ccc(C(=O)[C@H]2[C@H]3C(=O)N(c4ccccc4)C(=O)[C@H]3C3C=CC=NN32)cc1 (some centres not stated)	-5	-24%	5.6%	-14%
Cc1cccc(-n2c(SCC(=O)Nc3ncc(Cl)cc3Cl)nc3ccccc32)c1	-13	26%	0.8%	-2%
C[C@@H](C(=O)N1CCNCC1)n1cc(CCC(=O)O)nn1	9	0%	-0.7%	4%
COc1ccc(C2CC(c3ccc(OC)c(OC)c3)=NN2S(C)(=O)=O)cc1 (configuration not stated)	-5	-37%	-0.1%	-7%
CCc1ccc(NC(=O)NCCN2CCCCC2)cc1	/	-4%	?	5%
CCOc1ccc(OCC)c(NC(=O)CCn2c(=O)oc3ccccc32)c1	-18	-8%	2.5%	-2%
CC(=O)Nc1ccc(NC(=S)NC(=O)C2CCCC2)cc1	/	-7%	3.1%	0%
COCCn1c(SCC(=O)N2CCCCC2)nc2cccnc21	-1	-1%	4.9%	8%
COc1ccc(NC(=O)CN(C)C(=O)c2csc3c2CCCC3)cc1	/	/	-1.5%	-1%
Cc1nnc(SCC(=O)Nc2ccc(N3CCOCC3)cc2)n1Cc1ccccc1	/	/	-1.5%	-3%
Cc1cc2cc(CNC(=S)NCc3ccccc3)ccc2n1C	-4	0%	-0.7%	-19%
O=C(CC1=NC2(CCCC2)Cc2ccccc21)N1CCOCC1	-1	-5%	2.8%	3%
CCCCNC(=O)COn1nnc2ccc(S(=O)(=O)N3CCOCC3)cc21	/	/	?	?
CCCCNC(=O)Nc1nnc(-c2ccc(Cl)cc2)o1	7	1%	0.0%	?
CCNC(=O)Nn1c(C)nnc1C	-9	0%	-0.5%	13%
CCOc1ccc(C2C(C#N)=C(N)Oc3cc(C)[nH]c(=O)c32)cc1OC (configuration not stated)	-10	-6%	4.9%	-5%
COC(=O)CC(NS(=O)(=O)c1cccs1)c1ccc2c(c1)OCO2 (configuration not stated)	/	3%	0.6%	3%
CC(C#N)Sc1ccc(S(=O)(=O)N(C)C2CCCCC2)cn1 (configuration not stated)	/	/	-0.3%	-2%
Cc1csc(NC(=O)C2COc3ccccc3O2)n1 (configuration not stated)	10	11%	-0.7%	-1%
CCOc1ccccc1N1CCN(C(=O)COc2ccc3c(C)cc(=O)oc3c2)CC1	8	-4%	?	-1%
CCOC(=O)N1CCN(C(=O)CSc2ccc(-c3ccc(OC)cc3)nn2)CC1	-17	-8%	2.6%	0%
COCCN1C(=O)N[C@@H](CCc2ccccc2)C(C(C)=O)=C1C	-13&2	2%	-2.4%	0%
CC(C)COC(=O)C1[C@H]2C(=O)N(Cc3cccs3)C[C@]23C=C[C@H]1O3 (some centres not stated)	1	-2%	3.0%	-8%
Cc1ccc2nc(NS(C)(=O)=O)sc2c1	-2	-15%	2.8%	-10%
Cc1ccc(CCNC(=O)Cn2cccc2)cc1	10	-11%	-0.5%	14%
CCN1CCc2nc(NC(=O)CC(c3ccccc3)c3ccccc3)sc2C1	-10	-8%	?	-5%
COc1ccc2c(c1)C(=O)Nc1cc(Cl)ccc1N2	/	/	-2.7%	-4%
CCOC(=O)c1cc(C)sc1NC(=O)CN1CCN(C(=O)C2CCCO2)CC1 (configuration not stated)	/	-4%	-0.4%	2%
c1ccc(CCc2cccnc2)cc1	/	/	2.1%	-9%
CCOc1ccc(C(C)=O)cc1COc1ccc(C)nc1[N+](=O)[O-]	/	-7%	?	-7%
COCC(=O)N(C)C[C@H]1N[C@@](C)(C(=O)OC)[C@H]2C(=O)N(Cc3ccccc3)C(=O)[C@@H]12	/	/	3.0%	-9%
CCOCCC(=O)Nc1cc(Cl)ccc1OC	-8	-4%	0.0%	-11%
O=C(CCCc1ccccc1)NCc1ccccc1Cl	/	-36%	1.4%	10%
CCN(CC)S(=O)(=O)c1cc(C(=O)O)ccc1OC	9	0%	-1.2%	-1%
CC(C)(C)c1ccc(-c2noc(CCC(=O)NCc3ccco3)n2)cc1	-3	29%	2.7%	49%
O=C(O)CN1C(=O)/C(=C\c2cc(Br)ccc2OCc2ccc([N+](=O)[O-])cc2)SC1=S	/	-21%	-0.5%	1%
O=C(CCC(=O)c1cccs1)NC(c1ccccc1)c1ccccc1	4	-2%	-0.4%	6%
CCN(C[C@H]1N[C@@](C)(C(=O)OC)[C@H]2C(=O)N(C)C(=O)[C@@H]12)C(=O)Nc1ccc(OC)cc1	/	/	-0.5%	4%
CC(=O)Nc1ccc(SCC(=O)Nc2ccccc2-c2ccccc2)cc1	2	3%	-1.6%	-1%
O=[N+]([O-])c1cc2ccccc2nc1-c1ccccc1	/	/	?	7%
Cc1c(C(=O)N(C)c2cccc(Cl)c2)cnn1-c1ccccc1	/	-40%	-2.7%	25%
O=C(NN1C(=O)C2C3C=CC(C4CC34)C2C1=O)c1ccc(Cl)cc1Cl (configuration not stated)	-4	-4%	2.0%	-3%
N#Cc1cc2c(nc1SCc1ccc(Cl)cc1)CCCC2	-4	-7%	3.3%	-12%
c1ccc(-c2nnc(C(c3ccccc3)c3ccccc3)o2)cc1	1	-21%	?	-1%
C=CC(O)Cc1c(C)n[nH]c1C (configuration not stated)	-7	-2%	2.9%	-4%
O=C(CSc1ccccc1)NCCCN1CCOCC1	2	-8%	-3.1%	0%
O=C(NN1C(=O)/C(=C/c2cccs2)SC1=S)c1ccccc1	-6	-9%	-1.8%	-9%
CCOC(=O)N1CCN(C(=S)NCCOC)CC1	9	3%	-1.9%	13%
Oc1[nH]c2ccccc2c1C1=NCCCCC1	0	-9%	0.1%	1%
Cc1ccc(C(C)C)c(OCC(=O)N2CCN(c3ncccn3)CC2)c1	/	/	-2.4%	6%
COCCn1c(=O)[nH]c2cc(C(=O)NCc3cccnc3)ccc2c1=O	?	2%	-4.3%	-3%
COc1cc(S(N)(=O)=O)c(OC)cc1N	1	-2%	3.6%	0%
CCOc1ccccc1-c1cc(C(=O)N/N=C(\C)c2cccnc2)c2ccccc2n1	/	15%	1.5%	-15%
Clc1cccc(Cl)c1OCCCCN1CCCCC1	/	-5%	0.0%	7%
CCCCNC(=O)CSc1nc2cc3c(cc2c(=O)n1Cc1ccco1)OCO3	-2	1%	0.4%	21%
CC(=O)N1CCN(C(=O)c2ccc(-c3cccc(C(F)(F)F)c3)o2)CC1	/	/	0.1%	8%
Cn1ccsc1=NC(=O)c1ccc(S(C)(=O)=O)c([N+](=O)[O-])c1	/	-13%	-4.5%	13%

Next results.
smiles	GLA inh pH 4.5	miR-21 reporter	Rango-impB inh	Rango dissoc inh
NC(=O)c1ccc(C(F)(F)F)cn1	-5	2%	0.3%	12%
CN1CCN(Cc2nc3c(c(=O)[nH]c(=O)n3C)n2CCc2ccccc2)CC1	15	-6%	-8.8%	0%
CC(C)CNC(=O)NC(=O)CSc1nc2ccccc2n1CC(C)C	-22	2%	4.5%	21%
Cc1ccc(NC(=O)CSC(N)=O)cc1Cl	-6	3%	-0.1%	1%
CCCCNC(=O)c1ccccc1SCc1c(C)noc1C	/	0%	0.0%	-11%
O=C(N/N=C/c1ccc(Br)cc1)c1cc[n+]([O-])cc1	/	3%	0.0%	5%
Cn1c(CCNC(=O)c2ccccc2)nc2cc(NC(=O)c3ccco3)ccc21	5	-33%	5.8%	-9%
c1cc2c(cc1CN1CCOCC1)OCO2	2	-2%	-4.1%	10%
CC(=O)NS(=O)(=O)c1ccc2sc(C)nc2c1	-9	-1%	3.1%	8%
Cc1ccc(CSc2nnc(-c3ccccc3N)c(=O)[nH]2)cc1	2	-7%	0.3%	6%
CCn1cc(S(=O)(=O)CC(=O)Nc2cc(C)on2)c2ccccc21	-6	5%	1.1%	-1%
O=c1[nH]nc(SCc2cc(Cl)ccc2Cl)c(=O)[nH]1	-14	-6%	6.7%	2%
CC(C)C1Nc2ccc(C(=O)N3CCN(c4ccccn4)CC3)cc2NC1=O (configuration not stated)	/	1%	1.9%	18%
CCOc1ccc(C(CCc2ccccc2)NC(=O)c2ccccc2)cc1OCC (configuration not stated)	-6	-2%	0.4%	2%
O=C(NCCNc1ccc(Cl)cc1[N+](=O)[O-])c1ccccc1F	/	-18%	?	-9%
O=C(Cn1c(=O)oc2cc(S(=O)(=O)N3CCCC3)ccc21)NCc1ccccn1	3	-8%	?	11%
C/C(=N\NC(=O)Cc1ccc(Cl)cc1)c1cccc(NC(=O)c2cccnc2)c1	/	-8%	-0.2%	-11%
Cc1ccc2cc(CCNC(=O)CC(C)(C)C)c(=O)[nH]c2c1C	8	-10%	-5.3%	-13%
O=C(NC(=S)Nc1ccc(Br)cn1)c1cccnc1	7	-3%	0.4%	-8%
COc1ccc(OC)c(-c2nnc(-c3ccc(C)o3)o2)c1	-2	-41%	-3.2%	-17%
CC1CC(C)CN(c2nc(NCc3ccco3)nc(N)c2[N+](=O)[O-])C1 (configuration not stated)	4	2%	?	-8%
CCOCCCNC(=O)c1ccc(/C=C2\Oc3ccccc3N(C)C2=O)cc1	/	-15%	?	-17%
Cn1cc(CC(=O)NCCCN2CCOCC2)c2ccccc21	1	-1%	0.6%	-13%
Cc1nc(C)c(C(=O)Nc2ccccc2-c2ccccc2)o1	-1	-7%	0.1%	-6%
CCn1cc(C(=O)NC(=S)Nc2ccccc2Br)cn1	/	-32%	5.7%	-7%
Cc1c(OC(C)C(=O)O)ccc2c3c(c(=O)oc12)CCCC3 (configuration not stated)	/	0%	0.4%	42%
CC(C)(C)c1cc2cccnc2n1Cc1cccc(Cl)c1	-13	12%	1.2%	14%
COC(=O)c1sccc1NC(=O)c1ccc(C)s1	0	-10%	3.0%	3%
CCN(CC)C(=O)c1cc2c(=O)c3cc(F)ccc3oc2nc1C	10	-33%	-0.1%	?
CCN(CC)C(=O)C1CCCN(C(=O)c2oc3ccc(C)cc3c2C)C1 (configuration not stated)	/	-14%	3.0%	-19%
CSc1ccccc1NC(=O)Nc1cccc(Cl)c1C	2	-1%	0.4%	-5%
Cc1cccc(NC(=O)CN(CC2CCCO2)C(=O)c2oc3ccccc3c2C)c1C (configuration not stated)	/	/	-1.1%	0%
O=C(CSc1nnc(-c2ccc(Br)o2)n1Cc1ccccc1)c1ccccc1F	-6	-14%	1.3%	10%
Cc1nc(C(=O)NCCC(C)C)sc1C1(C)CC(c2cccc([N+](=O)[O-])c2)=NO1 (configuration not stated)	0	8%	-3.2%	3%
COc1ccc(/C=N\NC(=O)c2ccccc2Br)cc1COc1ccc(F)cc1	/	-2%	3.3%	-20%
Cc1cc(C(=O)NNC(=O)c2cccc([N+](=O)[O-])c2)n[nH]1	/	/	1.6%	8%
O=C(NCCc1nnc2ccc(NCCCN3CCOCC3)nn12)c1ccccc1F	/	-2%	0.4%	22%
CCCCC(=O)Nc1ccnc(-c2cccnc2)n1	1	0%	0.5%	15%
Cc1ccc(NC(=O)c2ccc(CSc3nnc(-c4ccncc4)n3C)cc2)cc1	-7	-7%	-1.5%	-10%

Bioassay records as filed in PubChem BioAssay.

A portion of the library (hit frequency here may not be typical).
